# MgrA-DNA mod: S. aureus MgrA activity modulators, primary screen, biochemical, S. aureus Newman, fluorescence polarization. MgrA-DNA binding. inhibition, %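 (about 10 µg/mL by stock and volumes)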. 84,000 compounds, 0.13% hits;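 active = above 50% in either of two replicates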;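 note: 0% = protein plus DNA without compound and 100% = DNA alone without protein; higher means less MgrA bound to DNA so lower polarization; one replicate is shown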
# Sa helicase inh: inhibitors of S. aureus replicative helicase, primary screen, biochemical, fluorescence unwinding readout | purified S. aureus helicase, fluorescence unwinding assay; about half of the hits fall short of the stated cut | inhibition, %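 (tested at about 80 µM)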 | 120,000 compounds, 0.05% hits;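 active = both duplicates at 50% or more, or one of them with a favoured structure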;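 note: 0% = mean of negative control wells and 100% = mean of positive control wells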
# Numbers without * were called inactive; · = no result given; & = joins results of further samples. These rows are one share of the data. The share of hits here may be higher or lower than overall.
no.	molecule	MgrA-DNA mod	Sa helicase inh
1	O=C(C(NS(=O)(=O)c1cccc2nsnc12)c1ccccc1)N1CCN(c2ccc(F)cc2)CC1 (stereo unspecified)	·	-21
2	CN(Cc1ccccc1)C(=O)CCN1C(=O)COc2ccccc21	-2.5	9
3	N#C/C=C/c1ccc(Br)cc1C(F)(F)F	0.0	·
4	Clc1cc(CSc2nnnn2C2CCCC2)cc2c1OCCCO2	·	1
5	COc1cccc(-c2nn(C)c3sc(C(=O)NCc4ccccn4)cc23)c1	·	-26
6	O=C(Nc1ccccc1N1CCCC1)c1cccc(OCc2ccccc2)c1	-1.1	5
7	CCCN1CCCc2cc(CN(CCOC)C(=S)Nc3ccccc3OC)ccc21	2.2	-14
8	O=C(CN1CCN(c2ccc(F)cc2)CC1)N1CCCC1	0.6	8
9	CCOC(=O)N1CCC(N(CCN(C)C)C(=S)Nc2ccc(C)c(F)c2)CC1	-0.1	10
10	COC(=O)c1cc(S(=O)(=O)NCc2ccccc2)c[nH]1	0.0	0
11	CC(C)C(=O)Nc1ccc2c(c1)C(=O)NC2=O	1.4	6
12	COc1ccc2nc(C(=O)N3CCN(C)CC3)sc2c1	2.3	-7
13	Cc1noc(C)c1C(=O)OCC(=O)N(c1ccccc1)C1CCCCC1	·	-10
14	O=S(=O)(c1ccc(OCc2ccc(Br)cc2)cc1)c1ccc(OCc2ccc(Br)cc2)cc1	-0.8	·
15	CO/C(C)=C\c1sc2ccccc2[n+]1C	1.3	-6
16	O=C(COC(=O)c1c(C(F)(F)F)cccc1C(F)(F)F)c1ccc(Cl)cc1	-0.2	·
17	Cc1ccc(NC(=O)NC2CC(C)(C)NC(C)(C)C2)cc1	1.2	2
18	COC(=O)C1(C(O)c2ccc(Cl)cc2)CCCCC1 (stereo unspecified)	0.0	3
19	COc1ccc(-c2nc(N3CCCCC3)c3ccccc3n2)cc1	·	-22
20	C/C(=N\NC(=O)COc1ccc(Br)cc1)c1ccc2c(c1)OCO2	·	16
21	Cc1ccc(-c2cnc(-c3ccncc3)o2)cc1	·	-42
22	O=S(=O)(CCNCc1cccs1)c1ccc(Cl)cc1	1.2	·
23	CC(NC(=O)c1c(F)cccc1F)C(c1cccs1)N1CCOCC1 (stereo unspecified)	·	-2
24	COc1cccc(N2CC(=O)N(/N=C/c3ccc(Cl)cc3)CC2=O)c1	·	10
25	CCCc1nc2ccccc2n1CC(=O)Nc1ccc(F)cc1	-1.9	-10
26	CC(C)S(=O)(=O)N1CCN(c2ccnc3cc(Cl)ccc23)CC1	1.4	·
27	COc1ccc(-n2ncc(C(=O)Nc3ccc4nccnc4c3)c2C)cc1	-0.5	·
28	CCN(CC)C(=O)CN1CCN(c2cccc(Cl)c2)CC1	0.0	-15
29	C=CCn1c(SCC(N)=O)nnc1C1CCCCC1	-2.5	-4
30	O=C(O)COc1c(-c2ccccc2)oc2ccccc2c1=O	-1.3	6
31	CNC(=O)n1nc(C)c(Cc2csc3ccc(Cl)cc23)c1C	-1.9	·
32	C(=NCC1CCC(CN=Cc2ccco2)CC1)c1ccco1 (stereo unspecified)	-2.0	·
33	CCCCCNc1nc(-c2ccco2)c2c(c1C#N)CCCC2	·	5
34	COc1ccc(N2CCN(CCNC(c3ccc(F)cc3)c3nnc(-c4ccccc4)o3)CC2)cc1 (stereo unspecified)	·	5
35	NC(=O)C1=CN(C(=O)Nc2ccc(Cl)cc2)CCC1C(F)(F)F (stereo unspecified)	0.9	·
36	O=C(Cn1c(NCCO)nc2ccccc21)c1ccccc1	2.8	4
37	COc1cc([C@@H]2c3cc4c(cc3[C@H](O)[C@H]3COC(=O)[C@@H]23)OCO4)cc(OC)c1OC	1.5	·
38	Cc1cc(C(=O)CCC(=O)N2CCN(c3ncccn3)CC2)c(C)s1	·	-12
39	CN(CCc1ccccn1)C(=O)c1ccccc1C(=O)O	-1.4	·
40	COc1ccc(-n2ncc(NC(=O)NCc3cccs3)c2C)cc1	·	35

# Sorted by count of non-hydrogen atoms (high to low): some entries from above
no.	molecule	MgrA-DNA mod	Sa helicase inh
34	COc1ccc(N2CCN(CCNC(c3ccc(F)cc3)c3nnc(-c4ccccc4)o3)CC2)cc1 (stereo unspecified)	·	5
25	CCCc1nc2ccccc2n1CC(=O)Nc1ccc(F)cc1	-1.9	-10
36	O=C(Cn1c(NCCO)nc2ccccc21)c1ccccc1	2.8	4
29	C=CCn1c(SCC(N)=O)nnc1C1CCCCC1	-2.5	-4

# Next section
no.	molecule	MgrA-DNA mod	Sa helicase inh
41	CCOC(=O)c1c(O)c2cccc3c2n(c1=O)CC3	0.5	·
42	O=C(CSc1nnc2ccccn12)Nc1ccc2ccccc2c1	1.9	6
43	Cc1nc2ccc3nc(NC(=O)c4ccc(S(=O)(=O)N5CC(C)CC(C)C5)cc4)sc3c2s1 (stereo unspecified)	-1.9	·
44	CCS(=O)(=O)N1Cc2ccccc2CC1C(=O)Nc1ccc(NC(C)=O)cc1 (stereo unspecified)	·	8
45	c1ccc2[nH]c(Cc3nc4ccccc4[nH]3)nc2c1	5.0	-12
46	ClCC1Cc2cc(I)c(Cl)cc2O1 (stereo unspecified)	1.2	-14
47	O=c1c(Cl)c(Cl)cnn1Cc1cc(=O)n2ccsc2n1	·	13
48	COC(=O)c1sccc1-c1ccc(-c2ccn(C(=O)c3ccc(Cl)cc3)n2)o1	-2.1	·
49	Cc1ccc(S(=O)(=O)N2CCN(c3nc(-c4ccccc4)ns3)CC2)cc1	·	-12
50	C=CCn1c(=O)n2ncnc2c2c3c(sc21)CCCC3	4.0	7
51	CN(C)C(=O)NCc1ccc(S(N)(=O)=O)cc1	-3.5	-2
52	CC(C)S(=O)(=O)c1cnc(-c2cnccn2)nc1N	·	7
53	Cn1c(=O)oc2cc(S(=O)(=O)N3CCC(C(=O)Nc4ccc(Br)cc4)CC3)ccc21	·	4
54	C[n+]1c(-c2ccccc2)oc2ccc3[nH]ccc3c21	-0.5	-17
55	COc1ccc(SCC(=O)Nc2ccccn2)cc1	-0.9	14
56	O=C1c2cccc3cccc(c23)C(=O)N1O	·	-33
57	CS/C(N)=N/N=C/c1ccc(N(C)C)cc1	-2.4	·
58	CC1(C)CC(=O)C(C=NC(C)(C)C)=C(O)C1	-0.4	4
59	Cc1nc(S(=O)(=O)N(C)C2CCCCC2)cn1C	1.6	·
60	CNC(=O)Cn1ncc2c3ccccc3n(Cc3ccccc3F)c2c1=O	-2.8	8
61	COC(=O)c1ccccc1NC(=O)c1ccc(Cn2cc(Cl)cn2)o1	·	28
62	CCOC(=O)N1CCC2(CC1)CC(=O)c1cc(O)ccc1O2	·	2
63	Cc1cc(C)c2c(n1)sc1c(=O)[nH]cnc12	·	6
64	O=C1CSCN1Cc1c(Cl)cccc1Cl	0.0	·
65	CC(=O)N1CCCCNC1=S	·	-5
66	Cc1cccc(NC(=O)C2CCCCC2)c1C(=O)O	-2.5	·
67	N#Cc1c(-c2cccs2)oc(N)c1-c1ccc(Cl)cc1Cl	-1.3	·
68	Cc1c(/C=N/NC(=O)c2cncc(Br)c2)c2ccccc2n1C	-2.5	2
69	O=C(Nc1nnc(Sc2ccnc3cc(Cl)ccc23)s1)c1cccnc1Oc1ccccc1	-0.5	·
70	CCn1nccc1NC(=O)c1ccccc1	·	-24
71	CCC(NC(=O)OC1CCCCC1C)(C(F)(F)F)C(F)(F)F (stereo unspecified)	-1.4	6
72	O=C1c2ccccc2C(=O)N1CN(C(=O)c1cccnc1)c1cccc(F)c1	·	0
73	O=C(c1cccc(-n2cccc2)c1)N1CCC(c2nc3ccccc3s2)CC1	·	7
74	Cc1ccccc1-c1nnc(C2CCC(c3ccccc3)CC2)o1 (stereo unspecified)	-2.6	5
75	CN(C)c1ccc(/C=N/N2C(=O)C3C4C=CC(C4)C3C2=O)o1 (stereo unspecified)	7.1	3
76	CC(O)C(NS(=O)(=O)c1ccc(Cl)cc1)C(=O)OCc1nnc(-c2ccccc2)o1 (stereo unspecified)	·	-5
77	COc1cccc(C(=O)Nc2ccc3oc(-c4cccc(I)c4)nc3c2)c1	-2.3	2
78	CSc1nc2c(sc3ccccc32)c(=O)n1CCCC(=O)NC1CCCCC1	·	4
79	Cc1ccc(Nc2ncc(C(=O)NCCCN3CC(C)CC(C)C3)c3ccccc23)cc1Cl (stereo unspecified)	-1.9	9
80	CCCOC(=O)Nc1cccc(C(=O)OCCC)c1	1.8	5
81	COc1ccc([C@@H]2CC(=O)c3c(O)cc(O)cc3O2)cc1O	1.1	·
82	COc1ccc(CNC(=O)C(NS(=O)(=O)c2cccc3nsnc23)c2ccccc2)cc1 (stereo unspecified)	·	0
83	Cc1ccc2oc(=O)n(CCc3noc(-c4cc(C)on4)n3)c2c1	1.9	·
84	CP(=O)(Nc1cc(Cl)ccc1Cl)c1nc2c(s1)CCCC2 (stereo unspecified)	·	0
85	CC(C)(C)S(=O)(=O)c1cnc(N)nc1N	1.2	·
86	COc1ccc(CCNC(=O)c2c(Cl)cccc2Cl)cc1OC	-0.3	·
87	O=C(CC(Nc1ccccc1)C(=O)O)c1ccccc1 (stereo unspecified)	·	-7
88	CCOc1ccc(N2C(=O)C(CC(=O)Nc3ccccc3)N(CCN3CCN(C)CC3)C2=S)cc1 (stereo unspecified)	-0.6	11
89	NNC(=O)c1oc2nc(-c3ccccc3)cc(-c3ccco3)c2c1N	·	-3
90	O=C(N/N=C/c1ccco1)c1ccc(CN2c3cccc4cccc(c34)S2(=O)=O)cc1	·	22
91	CSc1nc2ccccc2n1N	-3.0	-3
92	CN(C)S(=O)(=O)c1cccc(COC(=O)C2=NNC(=O)CC2)c1	·	4
93	O=C(CSc1nc2ccccc2n1CCc1ccccc1)N1CCOCC1	-0.7	-6
94	Cc1ccccc1Cn1c2ccccc2c2cnn(CC(=O)NCC3CCCO3)c(=O)c21 (stereo unspecified)	·	13
95	O=C1OC2(CCCCC2)OC(=O)C1=Cc1ccoc1	3.2	·
96	O=C(CN1CCN(Cc2cccc(Cl)c2)C1=O)N1CCCC1	·	44
97	CC(=O)N1CCc2cc(Br)cc(S(=O)(=O)N3CCCC3)c21	-0.6	6
98	Cc1ccccc1OCC(=O)N1CCOCC1	0.8	0
99	Cc1ccc(C)c(C(=O)OCC(=O)N(C)c2ccccc2)c1	-1.6	-5
100	COc1ccc(C2Oc3ccccc3C3CC(c4ccc(C)o4)=NN32)cc1OC (stereo unspecified)	·	5

# (more compounds)
no.	molecule	MgrA-DNA mod	Sa helicase inh
101	CCCCc1oc2ccccc2c1C(=O)c1cc(I)c(OCCN(CC)CC)c(I)c1	0.4&4.2	·
102	CC(O)Cn1c(NCc2ccccc2)nc2c1c(=O)n(C)c(=O)n2C (stereo unspecified)	-1.2	9
103	CNC(=O)N(O)C1N(c2ccccc2)C(=S)SC1(C)C (stereo unspecified)	2.2	6
104	O=c1cc(-c2ccccc2Cl)c2c([nH]1)CCC2	·	12
105	CC1(C)S[C@@H]2[C@H](NC(=O)Cc3ccccc3)C(=O)N2[C@H]1C(=O)O	1.4&0.2	·
106	CCc1cc2c(=O)[nH]cnc2s1	2.8&3.8	2&-1
107	O=C(NCCCN1CCOCC1)C1c2ccccc2Oc2ccccc21	·	14
108	CCOC(=O)C1=C(C)N=c2s/c(=C/c3ccc(OC(C)=O)c(OCC)c3)c(=O)n2C1c1ccccc1 (stereo unspecified)	-2.6	·
109	CCS(=O)(=O)N1CCN=C1SCc1ccc(C(F)(F)F)cc1	·	9
110	O=C(CN1CCN(c2ccccc2)CC1)N1CCCc2ccccc21	0.4	·
111	O=C1OCCC1Sc1nc2ccccc2n1-c1ccccc1 (stereo unspecified)	-2.0	-12
112	Clc1ccccc1OCCOc1ncnc2sccc12	·	-23
113	CCOC(=O)c1cnn(-c2ccc(Cl)nn2)c1/N=C/N(C)C	·	21
114	Cn1cccc1Cc1nnc(SCC(=O)Nc2ccccc2)n1C	·	11
115	Cc1ccc(-n2c(C(C)(C)C)cs/c2=N/c2ccccn2)cc1C	-2.6	·
116	CC(=O)c1cc(Cl)ccc1OC(=O)c1c(-c2c(Cl)cccc2Cl)noc1C	-0.8	·
117	Fc1ccc(C(c2nnnn2C2CCCC2)N(Cc2ccccc2)Cc2ccco2)cc1 (stereo unspecified)	-3.2	7
118	CCOC(=O)Nc1nc2c(F)c(F)c(F)cc2s1	0.7	0
119	Cc1ccccc1N=C(NO)c1cccnc1	-4.0	·
120	OCCN/N=C/c1cccc(OC(F)F)c1	·	24
121	CCOC(=O)c1ccc(NC(=O)C(Sc2ccccc2)c2ccccc2)cc1 (stereo unspecified)	4.4	-5
122	O=C1C2C3C=CC(C3)C2C(=O)N1c1ccccn1 (stereo unspecified)	·	0
123	Cc1cc(C(=O)COC(=O)c2ccccc2NS(C)(=O)=O)c(C)n1C1CC1	·	-5
124	COc1c2c(cc3c1C(CC(=O)c1ccccc1)N(C)CC3)OCO2 (stereo unspecified)	·	5
125	Cc1ccc(CSc2nc3ccccc3c(=O)n2CCc2ccccc2)cc1	1.0	1
126	C(=NCc1ccco1)c1cn(-c2ccccc2)nc1-c1ccccc1	-9.6	·
127	Cc1cc(C)n2nc(Nc3ccccc3)c(C(N)=O)c2n1	-0.9	9
128	CCOc1ccc(Nc2nc(O)c(N=Nc3ccc(C(=O)O)cc3)s2)cc1	·	-7
129	c1ccc(-n2c(SCc3nc4ccccc4o3)nnc2C2CC2)cc1	·	-3
130	COCCn1c(=O)sc2ccccc2c1=O	0.9	·

# Compound profiles, from the list above.
# Cc1cc(C)n2nc(Nc3ccccc3)c(C(N)=O)c2n1 is listed with MgrA-DNA mod: -0.9; Sa helicase inh: 9
# Cc1cc(C(=O)COC(=O)c2ccccc2NS(C)(=O)=O)c(C)n1C1CC1 is listed with MgrA-DNA mod: ·; Sa helicase inh: -5
# C(=NCc1ccco1)c1cn(-c2ccccc2)nc1-c1ccccc1 is listed with MgrA-DNA mod: -9.6; Sa helicase inh: ·
